# Screens as filed in PubChem.
# AmpC nodet inh – Promiscuous and Specific Inhibitors of AmpC Beta-Lactamase (assay without detergent) | P00811 | AmpC nitrocefin hydrolysis, absorbance 480 nm, no detergent; potencies from a single point are estimates | Potency, µM (highest dose often 28.7 µM), for inactives: at the top dose activity change, negative = inhibition | 71,000 compounds, 1.8% hits | AID 585, 2007; active = falling curve, for most hits resting on a single point; inconclusive = weak or doubtful change; inactive = flat or rising curve; note: % of control where 0% means no effect; about half of the hits show no inhibition at the top dose; a quarter of the inactives give rising signals
# Target sequence (P00811 whole entry, looked up): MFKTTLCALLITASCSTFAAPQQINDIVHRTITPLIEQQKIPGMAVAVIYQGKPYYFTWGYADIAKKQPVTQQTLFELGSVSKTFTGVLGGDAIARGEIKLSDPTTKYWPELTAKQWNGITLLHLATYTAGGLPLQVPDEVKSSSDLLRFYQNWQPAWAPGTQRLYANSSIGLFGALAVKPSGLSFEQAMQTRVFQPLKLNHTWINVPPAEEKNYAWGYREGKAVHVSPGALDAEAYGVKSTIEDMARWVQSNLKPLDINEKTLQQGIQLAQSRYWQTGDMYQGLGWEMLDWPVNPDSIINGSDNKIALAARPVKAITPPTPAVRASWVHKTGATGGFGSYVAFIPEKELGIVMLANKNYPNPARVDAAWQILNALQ
#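 Enzyme, pH 7.0 phosphate. Compound titrations were pre-incubated with AmpC for 15 min at room temperature before nitrocefin (stock 800 uM) addition; product formation was recorded at 480 nm every 20 s for 4 min.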
# Starred values were filed as active, the others as inactive; ? = inconclusive; & = joins results of further samples; [ ] = dose if it differs, or a comment. Potency is the fitted concentration of half-maximal effect. These rows are one share of the data; count on the stated rates, not on these rows.
SMILES,AmpC nodet inh
CCCn1c(=O)c(C(=O)Nc2ccccc2C(=O)OCC)c(O)c2ccccc21,45%
C[C@@H]1C(=O)O[C@@H]2C[C@@]34[C@H]5C[C@@H](C(C)(C)C)[C@@]36[C@@H](OC(=O)[C@@H]6O)O[C@]4(C(=O)O5)[C@@]12O,-1%
CCOC(=O)c1nnc(-c2ccccc2)o1,2%
CC1Cc2cc(/C(O)=C3/C(=O)C(=O)N(CC4CCCO4)C3c3ccco3)ccc2O1 (centres undefined),7%
CC(=O)N1CCc2cc(S(=O)(=O)NCCC(=O)N3CCN(Cc4ccccc4)CC3)ccc21,66%
COc1cccc(C(=O)/C=C/Nc2cc(C)ccc2O)c1,-10%
COc1cccc(C(C#N)N2CCCCC2)c1O (centres undefined),-2%
O=C(NCc1ccco1)Oc1ccccc1,-7%
CC1CCCCC1N=CC1=C(O)CC(C)(C)CC1=O (centres undefined),4%
COc1ccccc1Nc1nnc(SCC(=O)N2CCCC2=O)s1,28%
Oc1c(Br)c(Br)c(Br)c(Br)c1Br,?
CCCCn1c(SCC(=O)NC(=O)NCc2ccco2)nc2cc(S(N)(=O)=O)ccc21,6%
O=C(Cc1cccs1)N1CCC2(CC1)OCCO2,3%
Oc1ccccc1-c1nnc(COc2ccc(Cl)cc2Cl)o1,-12%
O=C(Nc1cccnc1)c1cnc2ccccc2n1,-7%
CCN1CCN(S(=O)(=O)c2ccc(OC)c(Br)c2)CC1,8%
CCSc1nc2ccccc2n1CC(N)=O,-12%
Nc1ccccc1S[C@@H](C[N+](=O)[O-])c1ccc2c(c1)OCO2,-5%[5.75 µM]
Cc1ccc(-c2nnc(SCC(=O)Nc3ccc4c(c3)OCCO4)n2N)cc1,-6%
Cc1nnc2ccc(N3CCN(C)CC3)nn12,-8%
CC(=O)c1cccc(NC(=O)N2CCCC2C(=O)NCc2ccc(C)cc2)c1 (centres undefined),5%
CC(=O)NC1=NC(=O)/C(=C/N2CCOCC2)S1,2%
COc1ccc(CCNC(=O)CSc2nnc(-c3cccc(F)c3)o2)cc1OC,22%
COc1ccc(CNC(=O)C2CCNCC2)cc1,-1%

# 24 entries from above in another layout:
Compound	AmpC nodet inh
CCCn1c(=O)c(C(=O)Nc2ccccc2C(=O)OCC)c(O)c2ccccc21	45%
C[C@@H]1C(=O)O[C@@H]2C[C@@]34[C@H]5C[C@@H](C(C)(C)C)[C@@]36[C@@H](OC(=O)[C@@H]6O)O[C@]4(C(=O)O5)[C@@]12O	-1%
CCOC(=O)c1nnc(-c2ccccc2)o1	2%
CC1Cc2cc(/C(O)=C3/C(=O)C(=O)N(CC4CCCO4)C3c3ccco3)ccc2O1 (centres undefined)	7%
CC(=O)N1CCc2cc(S(=O)(=O)NCCC(=O)N3CCN(Cc4ccccc4)CC3)ccc21	66%
COc1cccc(C(=O)/C=C/Nc2cc(C)ccc2O)c1	-10%
COc1cccc(C(C#N)N2CCCCC2)c1O (centres undefined)	-2%
O=C(NCc1ccco1)Oc1ccccc1	-7%
CC1CCCCC1N=CC1=C(O)CC(C)(C)CC1=O (centres undefined)	4%
COc1ccccc1Nc1nnc(SCC(=O)N2CCCC2=O)s1	28%
Oc1c(Br)c(Br)c(Br)c(Br)c1Br	?
CCCCn1c(SCC(=O)NC(=O)NCc2ccco2)nc2cc(S(N)(=O)=O)ccc21	6%
O=C(Cc1cccs1)N1CCC2(CC1)OCCO2	3%
Oc1ccccc1-c1nnc(COc2ccc(Cl)cc2Cl)o1	-12%
O=C(Nc1cccnc1)c1cnc2ccccc2n1	-7%
CCN1CCN(S(=O)(=O)c2ccc(OC)c(Br)c2)CC1	8%
CCSc1nc2ccccc2n1CC(N)=O	-12%
Nc1ccccc1S[C@@H](C[N+](=O)[O-])c1ccc2c(c1)OCO2	-5%[5.75 µM]
Cc1ccc(-c2nnc(SCC(=O)Nc3ccc4c(c3)OCCO4)n2N)cc1	-6%
Cc1nnc2ccc(N3CCN(C)CC3)nn12	-8%
CC(=O)c1cccc(NC(=O)N2CCCC2C(=O)NCc2ccc(C)cc2)c1 (centres undefined)	5%
CC(=O)NC1=NC(=O)/C(=C/N2CCOCC2)S1	2%
COc1ccc(CCNC(=O)CSc2nnc(-c3cccc(F)c3)o2)cc1OC	22%
COc1ccc(CNC(=O)C2CCNCC2)cc1	-1%

# The list continues.
SMILES,AmpC nodet inh
c1ccc(Cn2nnc3c(N4CCc5ccccc5C4)ncnc32)cc1,14%
Cc1nnc(SCC(=O)NCCN2C(=O)CSC2=O)s1,-8%
CCOC(=O)c1c(C)[nH]c(C)c1-c1ccccc1OC,31%
Cn1cccc1Cc1nnc(SCC(=O)N2CCN(c3ccccc3)CC2)n1-c1ccc(F)cc1,130%
Cn1c(=O)c2c(nc(CN3CCc4ccccc4C3)n2CC(=O)c2ccccc2)n(C)c1=O,111%
CC(C)CC(NC(=O)C1CCC(C)CC1)C(=O)Nc1cccnc1 (centres undefined),25%
CC(=O)Nc1nc2c(c3c1c(=O)oc1ccccc13)CCCCC2,-6%
O=C(NC1CCCCC1)N1CCCC(c2nc3ccccc3[nH]2)C1 (centres undefined),3%
COc1ccccc1C(=O)n1nc(-c2ccco2)nc1N,-7%
Cc1ccc(Cn2ncc3c(N4CCCC4)ncnc32)cc1,46%
Cc1cc(C)n(S(=O)(=O)c2cc(C(=O)O)c(Cl)cc2Cl)n1,-8%
O=C(Nc1ccc(C(F)(F)F)cc1Cl)c1ccc(Cn2cc(Br)cn2)o1,56%
CC(C)NC(=O)c1cc(-c2ccc(Br)cc2)on1,-7%
Cc1ccc(Nc2cc(-n3nc(C)cc3C)ncn2)c(C)c1,15%
O=c1c2ccccc2nc2n1CC/C2=C/N1CCN(c2cccc(C(F)(F)F)c2)CC1,30%
C=CCNC(=O)NS(=O)(=O)c1ccc(C)cc1,-7%
C/C(=N/NC1=NCCN1)c1cn(C2=NCCN2)nc1C,-1%[5.75 µM]
Cc1ccc(C(C)C)c(OCC(O)CN2CCOCC2)c1 (centres undefined),52%
COc1ccc(C2C(=O)N(C3CCCCC3)CC(=O)N2Cc2ccco2)cc1 (centres undefined),18%
Cc1ccc(-c2nc3cnccn3c2Nc2ccc3c(c2)OCO3)o1,51%
COc1c(O)cccc1-c1nnn(CCC(=O)OCC(=O)c2ccccc2)n1,17%
O=C(CSc1nnc(-c2ccccc2F)n1C1CCCCC1)N1CCCC1,70%
O=C(CCCOc1ccccc1)Nc1cccc(C(=O)O)c1,-2%
COc1ccc2c(=O)c3c(=O)n(Cc4ccco4)c(-c4ccccc4)nc3oc2c1,64%
Cc1c(NC(=O)C(C)OC(=O)COc2cccc3c2OC(C)(C)C3)c(=O)n(-c2ccccc2)n1C (centres undefined),42%
Cc1onc(-c2ccccc2Cl)c1C(=O)NCC(=O)O,-9%
[O-][N+]1(CC[N+]2([O-])CCCCC2)CCCCC1,-5%[5.75 µM]
COCCNC(=O)Nc1ccc2c(c1)N(C)C(=O)CS2,-12%
CCc1ccccc1NC(=O)C(C#N)Cc1cccnc1 (centres undefined),-9%
CCOC(=O)N1CCN(S(=O)(=O)c2ccc3c(c2)oc(=O)n3C)CC1,10%
CC1(C)CCCC2=C1CC1C(=O)N(O)C(=O)C1C2 (centres undefined),0%
CN(c1ccccc1C(=O)NCC1CCCO1)S(C)(=O)=O (centres undefined),-1%
COc1ccc(NC(=O)Cn2nnc(-c3ccccc3NC(=O)c3ccco3)n2)cc1,13µM*
CCOC(=O)c1c(NC(=O)C2CCN(S(=O)(=O)c3cccs3)CC2)sc(C)c1C,-16%
Cc1ccc(Nc2ncccc2C(=O)O)cc1C,-14%
ClC/C=C/CCl,-15%
FC(F)(F)c1nc(N2CCN(c3ccccc3)CC2)nc2c1CCCCC2,-6%
N[C@H](Cc1c[nH]c2ccccc12)P(=O)(O)O,-12%[5.75 µM]
CC1CC(C)CN(C(=O)CSc2nnc(-c3ccc(Cl)s3)o2)C1 (centres undefined),38%
COc1cc(C(=O)Oc2ccccc2N)cc(OC)c1OC,-8%
O=C(NCN1C(=O)C2C3C=CC(C3)C2C1=O)Nc1ccccn1 (centres undefined),0%
CCCCSc1nc2c(c(=O)n1CC)SC(C)C2 (centres undefined),11%
O=C(NCc1cccnc1)C1CCN(C(=O)c2ccc(Cl)cc2Cl)CC1,28%
Cc1ccccc1N1CCN(C(=O)C2CCCCC2)CC1,38%
Cc1cc(=O)oc2c1ccc1oc(/C(=N/O)c3ccccc3)c(C)c12,-11%
CS(=O)(=O)Nc1cccc(-c2nc(N3CCNCC3)c3ccccc3n2)c1,17%
CN(C)c1ccc(C(=O)OCC(=O)c2cccs2)cc1,-2%
CCOC(=O)N1CCN(C(=O)CSCC(=O)Nc2nc(-c3ccccc3)cs2)CC1,87%
CNC(=O)[C@H](C)[C@H]1C[C@]1(C)[C@H](NC(=O)OCc1ccccc1)c1ccccc1,101%
CSCC[C@H](NC(=O)CCn1nnc2ccccc2c1=O)C(=O)O,-3%
N#Cc1ccccc1Cn1c(=O)n(-c2ccc(CC(=O)NCc3ccco3)cc2)c(=O)c2sccc21,4µM*[single pt active]
O=C(CNC(=O)c1ccco1)OCc1cccc(Cl)c1,0%
NCCc1nnc(SCc2ccccc2F)o1,-14%
CC(C)(C)NC(=O)CSc1ncnc2c1nnn2Cc1ccccc1Cl,24%
COC(=O)c1c(S(N)(=O)=O)c2ccccc2n1C,-8%
C=CCc1ccc(OCCCCCN2CCOCC2)c(OC)c1,59%
O=C(CCN1CCN(CC(=O)Nc2ccccc2F)CC1)Nc1ccccc1F,28%
Cc1cc(OC2CCCCC2)nc(-c2ccccc2O)n1,-5%
Cc1ccc(-n2ncc(-c3nnc(SCC(=O)NC4CCCC4)o3)c2N)cc1C,8%
CN(C)c1cccc(NC(=O)Cc2ccc(F)cc2)c1,-5%
# Continued:
SMILES,AmpC nodet inh
CCn1c(Cc2ccccc2)nnc1SCC(=O)Nc1nccs1,12%
Nc1nc2c(c3c1c(=O)oc1ccccc13)CCCCC2,-4%
CCN(CC(=O)NC1CCCCC1)S(=O)(=O)c1ccc(Cl)cc1,-13%
Cc1cc(C)n2nc(C(=O)NCc3ccccc3)cc2n1,10%
COc1ccc(C(c2nnnn2Cc2cccs2)N2CCN(c3ccccc3F)CC2)cc1 (centres undefined),26%
CCOC(=O)c1ccccc1NS(=O)(=O)c1ccccc1,-4%
CN1CCN(c2ncc3nc(-c4cc(F)cc(F)c4)c(=O)n(CCc4ccccc4)c3n2)CC1,90%
COCc1[nH]nc2c1C(c1c(F)cccc1Cl)C(C#N)=C(N)O2 (centres undefined),2%
Cn1c(=O)n(Cc2ccc(Cl)cc2)c(=O)c2c1nc1n2CCN1Cc1ccco1,97%
Cc1cc(C(=O)Nc2sc3c(c2C#N)CCC(C(C)(C)C)C3)no1 (centres undefined),12%
O=C(c1cc(-c2cccs2)on1)N1CCN(c2ccccc2)CC1,18%
Clc1cccc(N2CCNCC2)c1,10%&-7%
CCC(CC)C(=O)NCc1ccc2c(c1)cc(C)n2C,-5%
CC(C)(C)NS(=O)(=O)c1cccc(S(=O)(=O)c2cccc(S(=O)(=O)NC(C)(C)C)c2)c1,2%
COC(=O)CNc1nc(-c2ccncc2)nc2ccccc12,-3%
COc1ccc(CCNS(=O)(=O)c2ccc3c(c2)CC(C)N3C(C)=O)cc1OC (centres undefined),23%
O=C1[C@@H]2C(c3ccccc3Cl)=NO[C@@H]2C(=O)N1Cc1ccccc1,-3%
Cc1ccc(NC2=NC(c3ccc(C)cc3)n3c(nc(C)cc3=O)N2)cc1 (centres undefined),17%
Cc1ccc(NC(=O)COC(=O)CCc2c[nH]c(=O)[nH]2)cc1,-1%
O=C(Cc1cccs1)Nc1nc2ccccc2s1,-24%
COC(=O)C1=C(C)OC(N)=C(C#N)C1c1c(C)nn(-c2ccccc2)c1Cl (centres undefined),34%
O=c1c(-c2ccc(F)cc2)nc2cnc(N3CCOCC3)nc2n1C1CC1,7%
CCC(COC(=O)Nc1cccc(C)c1)NC(=O)OCC(C)C (centres undefined),6%
Cc1ccc(C(=O)Nc2cnc3sc(C)nn3c2=O)cc1,0%
CCOC(=O)C(C)Oc1ccc(C2NC(=O)NC(C)=C2C(=O)Nc2ccccc2C)cc1 (centres undefined),-3%
CCC1(c2ccccc2)C(=O)N(COC)C(=O)N(COC)C1=O,30%
CCCCn1c(=O)[nH]c(=O)c2c1nc(-c1ccc(C#N)cc1)n2C1CCCC1,14%
CC(=O)N1CN(CCCn2ccnc2)Cc2c1sc1c2CCCC1,17%
COc1ccc(CNc2nc(-c3ccccc3OC)nc3ccccc23)c(OC)c1,83%
Cc1cc(N2CCN(C(=O)OC(C)(C)C)CC2)n2ncnc2n1,3%
COc1ccccc1OCC(=O)Nc1ccccn1,-7%

# Compounds above that contain bromine, in the order listed:
SMILES,AmpC nodet inh
Oc1c(Br)c(Br)c(Br)c(Br)c1Br,?
CCN1CCN(S(=O)(=O)c2ccc(OC)c(Br)c2)CC1,8%
O=C(Nc1ccc(C(F)(F)F)cc1Cl)c1ccc(Cn2cc(Br)cn2)o1,56%
CC(C)NC(=O)c1cc(-c2ccc(Br)cc2)on1,-7%
